Assay outcomes deposited in PubChem by ICCB-Longwood Screening Facility, Harvard Medical School.
CapD inh – blocks the Bacillus anthracis CapD enzyme. actives 0.23% (n = 140,000). z-score (test concentration not listed). purified CapD enzyme, fluorescence intensity read-out; stronger effect = lower value; some hits fall short of the stated cut. AID 492967;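 active = z-score under -4 in either of two replicates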;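 note: stock transfer was 100 nL into about 40 µL; score is relative to mean and spread of the plate; one replicate is shown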
AID504770 – E. coli YBA685 growth inhibition, screen for V. cholerae RctB inhibitors; E. coli YBA685 rctB-dependent plasmid, OD600 growth, 3 h; stronger effect = lower value; z-score (concentration not given with the values); actives 0.27% (n = 130,000);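 active = z-score under -2 on both plates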;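 note: wells of about 30 µL received 100 nL stock; score is relative to mean and SD of the test wells; the first replicate is given; strong numbers were not always called active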
* marks the source's active call; other numbers are inactive results; i = inactive; . = not tested or not shown; & = joins results of further samples. These rows are one share of the data; the hit share may differ from the screen's.

SMILES	CapD inh	AID504770
COc1ccc(CN2CCNCC2CCO)c(C)c1C (configuration not stated)	0.165	-0.55
Cc1ccc(-c2nc3cc(C(F)(F)F)cc(Cl)c3nc2-c2ccc(C)cc2)cc1	0.5	.
O=C(O)CCC(=O)c1cccs1	-1.01	-0.3
CC(C)CCNC(=O)c1ccco1	0.195	-1
CCOC(=O)c1c(C)n(C)c2ccc(OCC(O)CN(CC)CC)cc12 (configuration not stated)	-0.81	-1.1
CN(C)/C=C(/C(=O)c1ccc(Cl)c(Cl)c1)S(=O)(=O)c1ccccc1	-0.015	.
COC(=O)/C=C1\SC(NC(=O)c2ccccc2)NC1=O (configuration not stated)	.	-0.35
O=C(O)c1ccccc1C(=O)OCCN1CCOCC1	-0.345	-0.9
O=c1c(-c2nnc3c(Cl)nc4ccccc4n23)coc2ccccc12	0.1	-1.55
CCOC(=O)C1=C(C)N=c2s/c(=C/c3cc4c(cc3Cl)OCO4)c(=O)n2C1c1cc(OC)ccc1OC (configuration not stated)	-0.03	.
O=S(=O)(NCC1COc2ccccc2O1)c1ccc(N2CCOCC2)nc1 (configuration not stated)	3.96	-0.7
COc1ccc(C2Nc3ccccc3C(=O)N2Cc2ccccc2)cc1CN1C(=O)c2ccccc2C1=O (configuration not stated)	0.795	.
O=C(Nc1cc(Cl)sc1Cl)N1CCOCC1	0.67	0.3
O=C(CC1CCCCC1)NCCN1CCOCC1	.	-0.75
N#Cc1c(NC(=O)CSC2=NCCS2)sc2c1CCCC2	-0.735	-1.05
CC1CC2C3CCC4=CC(=O)C=CC4(C)[C@@]3(F)C(O)CC2(C)[C@@]1(O)C(=O)CO (some centres not stated)	0.36	.
Clc1ccc(-n2ncc3c(NCc4ccco4)ncnc32)cc1	-1.22	2.15
COC(=O)C1=C(N)n2c(s/c(=C\c3cccnc3)c2=O)=C(C(=O)OC)C1c1cccnc1 (configuration not stated)	0.12	.
CC(COc1ccc2c(c1)OCO2)NC(=O)c1c(F)cccc1F (configuration not stated)	0.13	-0.15
CN(C(=O)Cc1ccc(NC2=NC3CS(=O)(=O)CC3S2)cc1)C1CCCCC1 (configuration not stated)	-0.365	-0.8
Cc1nc2ccccc2nc(C)c1=NOCC(=O)Nc1ccc(S(=O)(=O)N2CCOCC2)cc1	.	0.8
NC(=S)c1ccc(-c2ccno2)s1	-1.33	-1.05
COC(=O)C1=C(NC(C)=O)CCC(C(=O)OC)C1 (configuration not stated)	-0.375	.
O=C(c1ccc(F)cc1F)N1CCN(C(=O)c2ccc(F)cc2F)CC1	0.745	1.05
O=C1C=C(NCC2CCCO2)C2(CCCCC2)O1 (configuration not stated)	0.15	0.55
Nc1c(C(=O)NCC2CCCO2)sc2ccc(S(=O)(=O)N3CCCCC3)cc12 (configuration not stated)	-1.38	-0.2
COc1ccc(SCC(=O)O)cc1	0.53	-0.45
CC(C)N1CCc2nc(SCC(=O)Nc3cccc(Cl)c3)[nH]c(=O)c2C1	12	0.35
CCOC(=O)Nc1ccc(Cl)c(Cl)c1	-0.01	-0.4
Cc1ccc(C(=O)C2OC(=O)C(C)(C)C(=O)C2(C)C)cc1 (configuration not stated)	0.025	-0.15
Nc1ccc(-c2nc3c(Cl)cccc3[nH]2)cc1	.	-1.05
OC(c1ccccc1)c1ccc(Cl)s1 (configuration not stated)	-0.21	-0.05
CN(C)C(CN)c1ccco1 (configuration not stated)	.	1.5
CN1CCN(C(=O)c2ccc(OCc3cccc(Cl)n3)cc2)CC1	-0.675	.
CCOc1ccc(-c2cc(C(N)=O)on2)cc1	-0.865	-0.25
Cc1oc2nc[nH]c(=O)c2c1C(=O)NC1CCCCCC1	.	-1.1
COc1ccc(CN2CC(C)OC(C)C2)cc1 (configuration not stated)	-0.38	-0.45
OC(COc1ccccc1)CN1CCNCC1 (configuration not stated)	-0.395	.
Cc1nc2nc(SCC(=O)N3CCC4(CC3)OCCO4)nn2c(C)c1Cc1ccccc1Cl	0.57	-0.6
O=S(=O)(c1ccccc1C(F)(F)F)N1CCN(c2ncccn2)CC1	.	0.7
CCOC(=O)Cc1csc(NC(=O)c2sc3ccccc3c2Cl)n1	i	0.8
Oc1cc2ccsc2c2ccccc12	.	-2.2
COC(=O)CSc1nnc(Nc2ccccc2C)s1	.	0.6
CCOC(=O)c1c(NC(=O)c2ccccc2C(=O)O)sc2c1CCCC2	-0.525	-0.25
O=C(NCCOc1ccccc1-c1ccccc1)c1cccc2ccccc12	0.165	-0.05

Complete entries, looked up by structure:
CCOc1ccc(-c2cc(C(N)=O)on2)cc1 reads CapD inh = -0.865; AID504770 = -0.25
OC(c1ccccc1)c1ccc(Cl)s1 (configuration not stated) reads CapD inh = -0.21; AID504770 = -0.05

An excerpt from above in order of heavy-atom count, high to low.
SMILES	CapD inh	AID504770
Cc1nc2nc(SCC(=O)N3CCC4(CC3)OCCO4)nn2c(C)c1Cc1ccccc1Cl	0.57	-0.6
O=C(NCCOc1ccccc1-c1ccccc1)c1cccc2ccccc12	0.165	-0.05
O=S(=O)(c1ccccc1C(F)(F)F)N1CCN(c2ncccn2)CC1	.	0.7
CCOC(=O)Cc1csc(NC(=O)c2sc3ccccc3c2Cl)n1	i	0.8
COC(=O)CSc1nnc(Nc2ccccc2C)s1	.	0.6
Oc1cc2ccsc2c2ccccc12	.	-2.2
CN(C)C(CN)c1ccco1 (configuration not stated)	.	1.5

Going on with the list:
SMILES	CapD inh	AID504770
NCc1cccc(Oc2ccccc2)c1	.	-2.2
O=C(COC(=O)C1CCCCC1C(=O)N1CCc2ccccc21)NCc1ccco1 (configuration not stated)	.	0.1
Cc1ccc2[nH]c3c(=O)n(CC(=O)N4CC(C)CC(C)C4)ncc3c2c1 (configuration not stated)	16.4	0.9
O=C(c1c(O)c2ccccc2oc1=O)C1CC1	0.325	1.05
Cc1c(C(=O)N2CCCCC2)sc2ncnc(N3CCN(c4ccccn4)CC3)c12	-0.24	.
CCOC(=O)/C(N=Nc1ccccc1)=C(\C)O	0.8	.
Cc1ccc(-c2nnn(CC(=O)N(Cc3ccccc3)C(C(=O)NC3CCCC3)c3ccco3)n2)cc1 (configuration not stated)	.	0.1
O=C(OCC(=O)N1CCN(c2ccccc2)CC1)c1ccco1	.	-0.3
COc1cc(OC)nc(CSCCNC(=O)c2cccc(C(F)(F)F)c2)n1	-0.35	.
NC(=O)Cn1nnc(-c2ccccc2N)n1	.	0.55
CN1CCN(C(=O)NC2CCCCC2)CC1	.	-0.5
COc1ccc(C(C)=O)cc1COC(=O)N1CCC(O)(c2cccc(C(F)(F)F)c2)CC1	-0.66	.
CN(C(=O)CSc1nncn1-c1ccccc1)C1CCCCC1	.	0.75
CC(C)C1Oc2ccccc2N(CC(=O)N(Cc2ccccn2)C2CC2)C1=O (configuration not stated)	.	-0.3
N#CCC(=O)NS(=O)(=O)c1ccccc1	0.625	-0.7
C/C=C1/C[C@@H](C)[C@](O)(CO)C(=O)OCC2=CCN3CC[C@@H](OC1=O)[C@@H]23	-0.175&-0.73	-0.15
O=C(Nc1ccccc1)c1sc2nncc(=O)n2c1C(=O)O	-0.185	.
CC1(C)CC(=O)C2=C(C1)NC(SCC(=O)N1CCOCC1)=C(C#N)C2c1ccco1 (configuration not stated)	1.46	-0.45
O=C(CSc1nc2ccccc2n1S(=O)(=O)c1ccccc1)Nc1ccc(Br)cc1F	-0.485	.
CCOc1ccc(/C=C2\SC(N3CCCC3)=NC2=O)cc1	0.185	-0.75
COc1cc(-n2cnc3cc(C(=O)NCc4cccnc4)ccc32)cc(OC)c1OC	-0.42	.
OC(CNCc1ccc2c(c1)OCO2)COc1ccccc1 (configuration not stated)	1.55	1
Cc1ccc(CC(=O)Nc2nccs2)cc1	0.405	-0.45
O=C(CNCCc1ccc2c(c1)OCCO2)NC1CCCCCC1	.	-0.3
COc1ccc(C2CC(=O)C3=C(C2)NC(C)=C(C(=O)OC(C)C)C3c2ccc(SC)cc2)cc1OC (configuration not stated)	32.7	.
N#Cc1ccc(CSC(=N)N)cc1	0.885	-0.3
Cc1ccc(C(=O)NC2CCCC2)s1	0.055	-0.75
COc1ccc(N2CCN(C(=S)c3ccccc3)CC2)cc1	0.11	-0.6
CC(=O)N(Cc1ccc(S(N)(=O)=O)cc1)C1CC(=O)N(c2ccccc2)C1=O (configuration not stated)	-0.355	-0.3
CS(=O)(=O)N1CCN(C(=S)Nc2cccc3ccccc23)CC1	0.945	-1.1
O=C1NC(c2ccccc2)=NC1=C(Cl)Cl	2.71	1.15
COC(=O)c1c[nH]c2ccc(S(=O)(=O)N3CCCC3)cc2c1=O	0.595	0.3
CC(=O)Nc1ccc(N2C(=O)CC(/C=C3/N(C)c4ccccc4C3(C)C)C2=O)cc1 (configuration not stated)	.	-0.1
O=C(O)C1CCC(=O)N1C1c2ccccc2Oc2ccccc21 (configuration not stated)	-0.025	2.2
O=C(O)C1=CN2CCS(=O)(=O)N=C2C=C1	.	1.5
COc1ccc(C(=O)COC(=O)c2ccc3c(=O)n4c(nc3c2)CCC4)cc1OC	.	-0.15
CN(C1CCS(=O)(=O)C1)S(=O)(=O)c1ccc(Cl)cc1 (configuration not stated)	0.4	-0.5
CC(=O)Nc1cc(C(=O)NCCc2ccc(C)cc2)ccc1S(=O)(=O)c1ccc(Cl)cc1	0.225	-0.6
CCN(CC)S(=O)(=O)c1ccc(-c2ccc(/C=N/N=C3\NC(=O)C(CC(=O)Nc4ccccc4)S3)o2)cc1 (configuration not stated)	.	-0.2
NS(=O)(=O)c1ccc(CNC(=O)c2ccc(C(=O)N(C3CCCCC3)C3CCCCC3)cc2)cc1	-0.06	0.4
N/C(=N\O)c1cccc(CS(=O)(=O)c2ccccn2)c1	0.745	.
O=[N+]([O-])c1cccc(-c2noc(-c3c(F)cccc3F)n2)c1	0.605	.
CC/C(O)=C1\C(=O)CCCC1=NCCc1c(C)[nH]c2ccccc12	-0.29	1.5
Cc1nn(C(=O)Cc2ccc(Cl)cc2)c(C)c1Br	0.275	-0.75
CCN=C1SC(CC(=O)Nc2cccc(C(F)(F)F)c2)C(=O)N1CC (configuration not stated)	0.615	.
COc1cc(C(=O)NC(C)(C)CC(C)(C)C)cc(OC)c1OC	-0.435	-0.9
CC(C)(C)c1cc(C(C)(C)C)n(-c2ccc(C(=O)NNC(=O)c3csc(CS(=O)(=O)Cc4ccco4)n3)cc2)n1	-0.3	.
COc1ccc(C2(C(N)=O)CCCC2)cc1OC	-0.22	.
Cc1nc2c(cc(O)c3ccsc32)s1	.	0.9
Cc1cccc(N2C(=O)CC(Sc3ncccc3C(=O)O)C2=O)c1C (configuration not stated)	0.175	-1.05
COc1ccc(S(=O)(=O)N/N=C(/C2CCCCC2)C(F)(F)F)cc1	.	-0.45
O=C(NNc1ccccc1)C(O)(c1cccc(C(F)(F)F)c1)c1cccc(C(F)(F)F)c1	0.36	.
O=[N+]([O-])c1c(Cl)cc(O)c2c1C1C=CCC1C(c1ccc(Br)cc1)N2 (configuration not stated)	-0.2	.
CC(C)N(C(=O)CSc1nnc(-c2ccc3c(c2)OCO3)n1C)C(C)C	.	-0.85
C=CCn1c(SCC(N)=O)nc2c(c1=O)C1(CCCCC1)Cc1ccccc1-2	-0.09	.
CC(C)OP(=O)(c1ccc(N(C)C)cc1)C(Nc1ccccc1)c1ccccc1 (configuration not stated)	-0.07	2.1
CCOc1ccc(OCCCC(=O)OCc2nnc3n(C)c(=O)c4ccccc4n23)cc1	.	0.15
COC(=O)C(O)(NS(=O)(=O)c1ccccc1)C(F)(F)F (configuration not stated)	.	-0.95
Cn1nccc1C(=O)Nc1cc(Sc2nc3ccccc3s2)cc([N+](=O)[O-])c1	-0.185	.
O=C(COC(=O)/C=C/c1ccco1)Nc1nnc(-c2ccccc2)o1	.	-0.05

Overlap with the part before: five compounds; new compounds follow.
SMILES	CapD inh	AID504770
CC(C)OP(=O)(c1ccc(N(C)C)cc1)C(Nc1ccccc1)c1ccccc1 (configuration not stated)	-0.07	2.1
CCOc1ccc(OCCCC(=O)OCc2nnc3n(C)c(=O)c4ccccc4n23)cc1	.	0.15
COC(=O)C(O)(NS(=O)(=O)c1ccccc1)C(F)(F)F (configuration not stated)	.	-0.95
Cn1nccc1C(=O)Nc1cc(Sc2nc3ccccc3s2)cc([N+](=O)[O-])c1	-0.185	.
O=C(COC(=O)/C=C/c1ccco1)Nc1nnc(-c2ccccc2)o1	.	-0.05
Cc1ccc(S(=O)(=O)CCN2CCC(n3cccc3)CC2)cc1	0.47	-0.8
COc1cc(/C=C2\SC(=Nc3cc(C)cc(C)c3)NC2=O)c([N+](=O)[O-])cc1OC	-0.125	.
O=C(Nc1ccc(F)cc1F)N1CCCN(c2ccc(C(F)(F)F)cn2)CC1	3.99	-1.9
CCOc1ccc(C(=O)Nc2c3c(nn2-c2ccc([N+](=O)[O-])cc2)CS(=O)(=O)C3)cc1OCC	-0.52	.
CN1/C(=C\C(=O)CN2C(=O)NC3(CCCCC3)C2=O)C(C)(C)c2ccccc21	.	-0.05
Cc1[nH]n(-c2ccc([N+](=O)[O-])cc2)c(=O)c1C=NCCN1CCN(C(=O)c2ccc(F)cc2)CC1	-0.07	.
CCNc1nc(NC(C)C)nc(C(=O)O)n1	.	0.2
CCN(CC)c1ccc(NC(=S)Nc2ccc(S(N)(=O)=O)cc2)cc1	-0.35	-0.25
Cc1cc2cc(CN(Cc3ccco3)C(c3nnnn3C3CCCC3)C(C)C)c(=O)[nH]c2cc1C (configuration not stated)	.	2.95
Cc1cc(C)cc(-n2c(C)cc(/C=C3/C(=N)N4C=CSC4=NC3=O)c2C)c1	0.585	0.3
CC[C@]12CCCN3CCc4c(n(c5ccccc45)C(=O)C1)[C@@H]32	-2.78&-0.34	.
NCC1(CC(=O)O)CCCCC1	-0.77	.
